Screening data from PubChem.
UCH37 inh: human UCH37 deubiquitinating enzyme inhibition. Q9Y5K5. inhibition, % (test concentration not listed). AID 588478. purified proteasome/UCH37, Ub-AMC cleavage fluorescence. 330,000 tested, 0.33% active;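 active = mean of two replicates above 20%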;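 note: 0% = compound-free wells with enzyme and 100% = wells lacking proteasome; stock transfer was 100 nL into about 20 µL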
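Material: human UCH37 enzyme supplied as purified proteasome complex / Amount: 0.15 nM proteasome as dispensed / Buffer or medium: pH 7.4 Tris-HCl (50 mM) with ovalbumin, ATP-MgCl2, DTT / Times: preincubation 30 min, reaction 25 min, room temperature / Technique: AMC fluorescence from Ub-AMC cleavage, excitation 355 nm, emission 460 nm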
A1 inh: inhibitors of the anti-apoptotic protein A1, read as caspase activation | MEF A1-2A-BIM cells, Caspase-Glo 3/7 luminescence, 3 h; percent of clofoctol response, vehicle zero | caspase activation, % (no concentration beside the values) | 330,000 tested, 0.066% active;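 active = over half of replicate activation scores above 10%, or exactly half above 10 with the replicate mean above 10; inconclusive = replicate mean below 10 yet half the replicates above 10; inactive = over half of replicates below 10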;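 note: wells of about 30 µL received 50 nL stock; many hits fall short of the cut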
Vif A3G: HIV-1 Vif–A3G interaction blockers – biochemical, TR-FRET, GST-Vif 1-94, biotin-A3G peptide, dose response retest, primary screen (AID 1117319); 260,000 tested, 0.57% active; inhibition, %; hits with a dose series show IC50 in µM; TR-FRET GST-Vif / biotin-A3G peptide binding; higher % means a stronger effect; test concentration not given here; strong numbers were not always called active;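 active = above the screen mean plus three standard deviations and confirmed in dose response; inconclusive = results disagree or hit not tested in dose response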;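 note: Vif residues 1-94 fused to GST binding biotinylated APOBEC3G peptide 110-148; 0% = full assay without inhibitor and 100% = GST in place of GST-Vif; retest series ran down from 100 µM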
LANA-H2A inh: blocks KSHV LANA binding to histone H2A/H2B; Q9QR71; cell-free LANA-H2A/H2B peptide, fluorescence polarization; inhibition, % (no concentration beside the values); 320,000 tested, 0.6% active; AID 2629; in the data active = inhibition mostly above about 10%, no sharp cut-off; inactive = mostly below about 6.7%;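 note: stock transfer was 7.5 nL into about 10 µL; 0% = median of vehicle wells and 100% = median of positive control wells; one replicate is shown; the record names a cut of 25% in any replicate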
Target sequence (Q9QR71 whole entry, looked up): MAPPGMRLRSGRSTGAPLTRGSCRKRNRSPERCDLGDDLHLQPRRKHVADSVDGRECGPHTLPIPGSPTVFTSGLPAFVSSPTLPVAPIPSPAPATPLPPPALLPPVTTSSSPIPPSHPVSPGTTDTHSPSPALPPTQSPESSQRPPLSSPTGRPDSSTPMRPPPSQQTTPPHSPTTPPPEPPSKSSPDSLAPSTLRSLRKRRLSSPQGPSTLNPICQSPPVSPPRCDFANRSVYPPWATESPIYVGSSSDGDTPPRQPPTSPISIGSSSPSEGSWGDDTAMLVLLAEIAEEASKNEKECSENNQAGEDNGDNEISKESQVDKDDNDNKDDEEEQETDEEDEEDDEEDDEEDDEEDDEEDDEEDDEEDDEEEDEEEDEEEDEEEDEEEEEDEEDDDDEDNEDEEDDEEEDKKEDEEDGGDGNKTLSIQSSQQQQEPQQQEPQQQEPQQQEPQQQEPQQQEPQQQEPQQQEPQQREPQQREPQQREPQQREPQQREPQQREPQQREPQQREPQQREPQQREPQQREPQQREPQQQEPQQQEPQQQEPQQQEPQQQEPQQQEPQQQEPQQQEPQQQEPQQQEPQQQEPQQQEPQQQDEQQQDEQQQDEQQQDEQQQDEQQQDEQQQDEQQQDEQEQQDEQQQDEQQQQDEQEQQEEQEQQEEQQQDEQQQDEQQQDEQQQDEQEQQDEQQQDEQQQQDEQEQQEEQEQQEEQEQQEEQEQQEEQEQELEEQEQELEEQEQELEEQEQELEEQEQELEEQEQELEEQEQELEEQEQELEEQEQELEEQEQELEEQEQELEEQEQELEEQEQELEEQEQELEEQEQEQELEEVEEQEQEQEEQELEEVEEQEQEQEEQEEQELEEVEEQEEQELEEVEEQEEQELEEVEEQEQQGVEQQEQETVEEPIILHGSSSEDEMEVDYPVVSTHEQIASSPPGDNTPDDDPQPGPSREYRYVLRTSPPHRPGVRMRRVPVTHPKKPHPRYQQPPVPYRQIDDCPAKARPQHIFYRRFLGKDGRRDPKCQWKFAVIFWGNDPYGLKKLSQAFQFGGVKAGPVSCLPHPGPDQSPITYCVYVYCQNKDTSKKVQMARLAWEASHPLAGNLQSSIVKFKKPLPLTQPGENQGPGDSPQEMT
E coli growth: inhibitors of Escherichia coli growth. OD600, 23 h; hits give low values. OD600 absorbance (test concentration not listed). 330,000 tested, 0.21% active;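 active = OD600 absorbance below the run mean of sample wells minus 3.6 SD, in any replicate, cut at about 0.56 in these data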;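 note: stock transfer was 300 nL into about 60 µL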
B2AR ag: activates human beta-2 adrenergic receptor causing internalization; response, % (concentration not given with the values); Am2.2-beta2AR cells, FAP receptor internalization, flow cytometry; reference of the scale not given here; AID 504454; 340,000 tested, 0.43% active;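 active = response above a set limit, near 3 SD of response in nonfluorescent compounds, cut at about 42% in these data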;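 note: stock transfer was 100 nL into about 11 µL; a reference agonist was the positive control; negative values mostly stem from fluorescent compounds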
HNF4A DNA FP: change in binding of human HNF4 alpha to DNA. activity change, % at 10 µM. 360,000 tested, 0.3% active. AID 1224865. P41235. HNF4a-FITC DNA binding, fluorescence polarization, 1 h; in the data active = activity change above about 30%, passing the limit was not always enough;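 note: controls were the assay level and a saturating level of protein; the project sought stronger binding though the title names inhibitors; some compounds called inactive have numbers as strong as hits; positive values seem to mean higher polarization but the record does not say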
* marks the source's active call; other numbers are inactive results; ? = inconclusive; . = no result given; & = joins results of further samples.

SMILES	UCH37 inh	A1 inh	Vif A3G	LANA-H2A inh	E coli growth	B2AR ag	HNF4A DNA FP
CCCCC[C@@H]1C=C(C(=O)O)[C@H](c2ccc(OC)c(OC)c2)N1S(=O)(=O)c1ccc(C)cc1	-0.5	0.2	-5%	-6.5	0.67	4	-3.9
CCCn1c(=N)c(S(=O)(=O)c2ccccc2)cc2c(=O)n3ccccc3nc21	-231	-0.2	-16%	-2.1	0.7	5	0.5
Cc1ccc(C(=O)N2CCN(c3ncccn3)CC2)o1	1.2	-0.6	26%	0.0	0.71	-3	-2.1
Cc1ccc(C23CC4CC(CC(C(=O)N(C)C)(C4)C2)C3)cc1	4.4	-0.5	3%	-2.6	0.68	-5	-0.2
S=C(NCCCc1ccccc1)Nc1ccc(Br)cc1	1.6	0.5	.	0.9	0.61	-1	0.4
CCOC(=O)N1CCN(C(=O)C2CCN(CC3CCCCC3)CC2)CC1	1.9	0.3	-1%	2.1	0.67	-5	0.2
NNC(=O)C1=NOC(CNc2ncc(C(F)(F)F)cc2Cl)C1 (stereo not drawn)	1.8	0.2	5%	0.8	0.7	-1	2.3
O=C(C1CCC(=O)N(C2CC2)C1)N1CCN(c2ccccc2Cl)CC1 (stereo not drawn)	4.7	0.7	.	-2.1	0.7	-5	-0.4
Cc1[nH]c(SCC(=O)c2c(N)n(C)c(=O)n(C)c2=O)nc1Cc1ccccc1	5.1	-0.6	-1%	-3.8	0.66	-8	3.0
Cc1ccc2nc(NC(=O)CN3C(=O)C4CC=CCC4C3=O)sc2c1 (stereo not drawn)	1.6	-0.3	.	-1.2	0.66	7	1.8
Cc1ccc(Nc2nc(-c3ccc(F)cc3)cs2)nc1	4.8	-4.9	5%	-0.6	0.69	-2	-1.6
O=C(Nc1ccc2ccccc2c1)c1ccc(Cl)cc1Cl	.	-4.6	-23%	2.1	.	-6	3.1
Nc1cc(OC(=O)c2cccs2)nn1S(=O)(=O)c1ccc(F)cc1	-3.4	-0.6	-1%&27%	0.3	0.73	1	1.3
CCn1c(-c2ccccc2)c(C(=O)O)c2ccccc21	-1.4	0.2	-2%	0.1	0.71	3	0.8
NC(=O)COC(=O)c1ccc(S(=O)(=O)NCc2ccco2)cc1	-1.1	0.1	.	-4.1	0.72	7	-5.2
COCCCNC(=O)Cn1cnc2c(OCc3ccccc3)ncnc21	3.3	0.5	1%	194*	0.69	-4	0.4
O=C(NCCN1C(=O)S/C(=C\c2ccc(Cl)c(Cl)c2)C1=O)c1ccc2c(c1)C(=O)N(Cc1ccncc1)C2=O	.	-0.7	29%	2.1	.	-10	4.6
O=C(Cc1cccs1)NCc1ccccc1Br	1.1	-1.4	-5%	-2.6	0.65	-6	-0.3
Cc1nc(N)nc(N)c1Oc1ccc(Cl)cc1	0.2	.	-2%	.	0.52*	2	-1.2
O=C(/C=C/c1ccccc1[N+](=O)[O-])OCC(=O)c1ccccc1	1.1	0.2	-4%	-5.5	0.7	-1	1.7
CC(=O)NCCc1nc2cc(NC(=O)c3cccs3)ccc2n1C	0.9	0.0	17%	0.9	0.73	3	2.3
CC1O[C@@H](O[C@H](C)CC[C@@H](C)O[C@H]2OC(C)[C@@H](O)C[C@H]2O)C(O)C[C@H]1O (stereo partly drawn)	3.4	-0.1	.	-0.2	.	-4	2.1
COc1ccc(-c2csc(N(CCCN(C)C)C(=O)c3ccccc3Cl)n2)cc1	3.5	-0.2	.	-3.2	0.67	8	-2.5
COCC(=O)Nc1c(C(=O)N2CCCC2)oc2ccccc12	3.1	0.7	.	-1.0	0.58	-1	3.0
O=C(NCC1(N2CCCCC2)CCCCC1)c1ccc(NS(=O)(=O)c2ccccc2)cc1	0.5	0.6	0%	1.1	0.64	1	0.5
COC(=O)c1c(C)[nH]c(C(=O)/C=C/c2cccc(Cl)c2)c1C	-44	0.2	.	-3.3	0.72	-6	1.9
COc1ccc(OCC(=O)N2CCN(C(=O)c3cccc4ccccc34)CC2)cc1	3.7	0.5	0%	-0.4	0.69	5	3.5
O=S(=O)(Nc1ccc(S(=O)(=O)Nc2ncccn2)cc1)c1ccc(Cl)cc1	3.4	0.1	.	0.7	0.66	8	-2.5
COc1ccc(/C=C/C(=O)OCC(=O)Nc2cc(S(=O)(=O)N(C)C)ccc2Cl)cc1	0.7	-0.4	0%	0.0	0.67	5	-0.7
O=C(Nc1cccc(S(=O)(=O)NC2=NCCC2)c1)c1ccccc1F	1.8	0.0	.	0.6	0.68	-14	1.3
CCc1ccc(CN2CCN(C(=O)c3cccc(OC)c3OC)CC2)cc1	5.3	-0.5	0%	-0.4	0.74	6	3.4
CCn1c2ccccc2c2cc(CN3CCN(S(C)(=O)=O)CC3)ccc21	5.3	1.7	4%	-5.4	0.63	22	-0.7
CCC(OC(=O)CCc1nc2ccccc2[nH]c1=O)C(=O)c1ccccc1 (stereo not drawn)	-17	-0.2	-1%	1.8	0.64	1	2.5
COc1cc(NC(=O)COC(=O)/C=C/c2c(C)nn(-c3ccc(F)cc3)c2Cl)cc(OC)c1	1.7	1.9	-2%	2.0	.	5	2.7
CCc1cc(=O)oc2c(C)c(OC(C)C(=O)N3CC[C@@]4(O)CCCC[C@H]4C3)ccc12 (stereo partly drawn)	-23	0.0	.	-9.4	0.73	-9	0.9
CC1(c2nnc(Cc3ccccc3)o2)CC(c2ccccc2[N+](=O)[O-])=NO1 (stereo not drawn)	0.6	2.1	.	4.1	.	4	0.6
CCOc1cc(C2NC(=O)c3ccccc3O2)ccc1OC (stereo not drawn)	3.4	-0.5	.	-3.7	0.62	2	-1.4
COc1cccc([C@@H]2CC=C(C(=O)O)CN2S(=O)(=O)c2ccc(C)cc2)c1	2.2	-0.1	.	-4.7	.	-1	-1.9
CC1(C)CC(=O)C2=C(C1)Oc1ncn(CCO)c(=N)c1C2c1ccccc1 (stereo not drawn)	.	0.2	1%	2.7	.	-4	-1.1
CCCCNC(=O)c1ccccc1NS(=O)(=O)c1ccc2c(c1)OCCO2	-5.9	0.2	?	-0.2	0.69	13	3.9
CCOc1ccc(CCNC(=O)c2cc([N+](=O)[O-])ccc2N2CCOCC2)cc1OCC	8.7	-1.3	7%	1.2	0.72	-2	-5.5
O=C(c1cc2ccccc2o1)N1CCN(S(=O)(=O)c2ccc(Cl)s2)CC1	4.7	-0.1	4%	4.6	0.71	-1	2.7
CCNc1ccc(C(=O)OC(C(=O)NC(N)=O)C(C)C)cc1[N+](=O)[O-] (stereo not drawn)	-0.3	0.3	.	4.5	0.74	-5	-0.7
COc1ccc(N2CCN(S(=O)(=O)c3ccc(OC)cc3)CC2)cc1	0.2	-0.8	.	14	0.67	-1	-1.0
Cc1c(Cl)cccc1NC(=O)COC(=O)c1ccc(CN2CCCC2=O)cc1	2.6	-0.2	-1%	4.3	0.69	-1	-2.0
O=[N+]([O-])c1ccc(CN2CCN(c3ncccn3)CC2)cc1	3.0	0.1	.	-5.5	0.65	2	-3.8
Cc1ccsc1C(C(=O)NC1CCCCC1)N(C(=O)c1csnn1)C1CC1 (stereo not drawn)	2.3	0.1	0%	-0.3	0.69	-1	-0.4
CC(=O)C[C@@H](O)CC(=O)[C@@H]1OC(=O)[C@H](C)CCCCc2ccccc21	1.2	.	.	.	0.68	4	-0.7
COc1cc(/C=N/Nc2cc(C)nc(N)n2)ccc1O	.	-1.4	2%	-4.2	.	-8	-0.8
CCOC(=O)n1n[n+]([O-])c2ccccc21	5.2	-0.1	-2%	7.6	0.69	0	1.0
CCOC(=O)Cc1csc(NC(=O)c2csc(C)c2)n1	-1.2	0.3	6%	-6.1	0.71	-2	-2.7
CCC(CC)c1ncc[nH]1	0.2	0.1	-4%	-11	0.65	-7	5.0
O=[N+]([O-])c1cc(C(F)(F)F)ccc1Sc1nccn1Cc1ccccc1	3.0	-0.7	0%	3.3	0.73	-12	-1.8
Cc1cccc(-c2ncc(CN3CCCC(CO)(Cc4ccccc4C)C3)cn2)c1 (stereo not drawn)	5.2	-0.5	3%	2.2	0.7	-6	0.6
O=C(NCCN1CCN(c2ccccc2)CC1)c1ccc(NC(=O)C2CCCO2)cc1 (stereo not drawn)	0.5	1.1	27%	-0.7	0.67	3	2.5
Cc1ccc(OCCCCn2ccnc2)c(Cl)c1	0.8	0.5	5%	-0.5	0.68	-6	1.4
CCOc1ccccc1NC(=O)CCN(c1ccc(C)cc1)S(=O)(=O)c1ccccc1	7.3	0.4	.	0.6	0.68	-8	1.3
Cc1ccccc1Cc1c(C)nc2nc(SCC(=O)NCCCN3CCCCC3)nn2c1C	1.0	1.1	.	-3.8	0.66	11	9.4
Cc1ccsc1C(=O)NCc1ccc(F)cc1	2.3	1.0	-3%	0.1	0.66	-3	1.1
Cc1ccccc1N1CCN(C2CCCN(C(=O)c3ccsc3)C2)CC1 (stereo not drawn)	0.8	0.2	.	-6.7	0.69	2	2.4
(list continues)
SMILES	UCH37 inh	A1 inh	Vif A3G	LANA-H2A inh	E coli growth	B2AR ag	HNF4A DNA FP
COc1ccccc1NC(=O)N(Cc1cccs1)Cc1cc2cc3c(cc2[nH]c1=O)OCO3	-29	0.4	-7%	-4.3	0.7	-6	3.6
N#C/C(=C\c1ccc(OCc2ccc(C(=O)O)cc2)cc1)C(=O)NCc1ccccc1	.	-2.5	.	0.5	.	-7	-4.5
Fc1ccc(CNC(=S)Nc2ccccc2Cl)cc1	6.0	0.0	3%	-3.3	0.69	-4	-0.7
Cc1cnc(NC(=O)CSc2nnc3ncccn23)s1	0.2	0.5	.	2.9	0.69	-9	3.7
COc1ccc(C2=NN(CCC(=O)NCc3ccc4c(c3)OCO4)C(=O)CC2)cc1	2.5	0.7	.	0.8	0.7	0	-1.7
CCCCC(=O)NC1(C(F)(F)F)C(=O)N(Cc2ccco2)C(C)=C1C(=O)OC (stereo not drawn)	5.6	-0.1	-2%	-2.4	0.71	7	2.2
Cc1ccc(Cn2ccc(NC(=O)c3noc4c3CCCCC4)n2)cc1	-1.8	1.1	10%	-0.3	0.67	4	15
CCC(C)NC(=O)C(NS(=O)(=O)c1ccc2c(c1)c(=O)n(C)c(=O)n2C)c1ccccc1 (stereo not drawn)	-2.8	0.6	1%	2.8	0.7	8	0.4
O=C(CC1SC(N2CCOCC2)=NC1=O)Nc1cccc(C(F)(F)F)c1 (stereo not drawn)	4.8	0.2	.	-3.7	0.67	-4	-1.8
O=C(CN1CCN(c2ccccc2)CC1)c1c[nH]c2ccccc12	4.6	1.6	-7%	-1.9	0.68	10	1.3
COc1ccc(NC(=O)CNC(=O)Cc2ccccc2)cc1	-0.2	0.2	4%	0.6	0.65	0	-4.0
CN(C(=O)CCS(=O)(=O)c1cc2c(cc1Cl)NC(=O)CO2)C1CCCCC1	1.1	-0.2	.	5.6	0.67	4	8.0
CCN(CC(=O)Nc1ccccc1C(F)(F)F)C(=O)Cc1sc(C)nc1-c1ccc(F)cc1	1.9	-0.5	-2%	7.0	0.6	-4	7.5
CC(=O)Nc1cccc(C(=O)OCC(=O)NC(C)c2ccc(F)cc2)c1 (stereo not drawn)	0.7	-0.4	13%	0.6	0.65	-2	-2.2

Only B2AR ag, E coli growth and UCH37 inh, for 2 of the compounds above:
smiles	B2AR ag	E coli growth	UCH37 inh
COc1ccc(C2=NN(CCC(=O)NCc3ccc4c(c3)OCO4)C(=O)CC2)cc1	0	0.7	2.5
CCCCC(=O)NC1(C(F)(F)F)C(=O)N(Cc2ccco2)C(C)=C1C(=O)OC (stereo not drawn)	7	0.71	5.6

Compounds shown so far that have bromine:
SMILES	UCH37 inh	A1 inh	Vif A3G	LANA-H2A inh	E coli growth	B2AR ag	HNF4A DNA FP
S=C(NCCCc1ccccc1)Nc1ccc(Br)cc1	1.6	0.5	.	0.9	0.61	-1	0.4
O=C(Cc1cccs1)NCc1ccccc1Br	1.1	-1.4	-5%	-2.6	0.65	-6	-0.3
